RVFV N-RNA FP – blocks Rift Valley Fever Virus nucleoprotein binding to RNA. P21700. RVFV N-RNA binding, fluorescence polarization; active compounds read low. % bound, % (test concentration not listed). hit rate 0.1% among 20,000. AID 651828;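 active = between 0 and 58% in either replicate with normal brightness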;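 note: 100 nL library stock added to about 12 µL; 100% = protein and probe without compound and 0% = probe alone; numbers are from one replicate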
Target sequence (P21700 whole entry, looked up): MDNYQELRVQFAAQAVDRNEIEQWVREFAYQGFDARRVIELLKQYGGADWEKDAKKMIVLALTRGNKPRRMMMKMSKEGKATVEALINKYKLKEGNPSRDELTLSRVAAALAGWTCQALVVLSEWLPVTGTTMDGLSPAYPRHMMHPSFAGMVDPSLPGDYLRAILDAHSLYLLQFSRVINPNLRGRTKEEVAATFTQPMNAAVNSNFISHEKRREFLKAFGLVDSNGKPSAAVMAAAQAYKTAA
* = called active by the depositor; & = joins results of further samples. This is a subset, so the mix of outcomes need not match the whole.

SMILES | RVFV N-RNA FP
COc1ccc(CCNC(=O)CSc2nc(N3CCOCC3)nc(N3CCOCC3)n2)cc1OC | 99
CC(C)(C)c1cc(C(=O)NN)n(Cc2ccccc2)n1 | 107
C[C@H]1O[C@@H](n2cnc3c(N)ncnc32)[C@H](O)[C@@H]1O | 99
O=C1C=C(Cc2ccc(F)cc2)C(=O)c2ccccc21 | 101
CC1(C)C2CC=C(CNc3ccc4c(c3)OCO4)C1C2 (stereo not drawn) | 94
Cc1ccc(S(=O)(=O)N2C(=O)CCC2C(=O)O/N=C(\N)c2ccccn2)cc1 (stereo not drawn) | 100
COc1ccc(CCn2c(N)c(Br)c(=O)[nH]c2=O)cc1OC | 93
C#CCN1C(=O)S/C(=C/c2cc(C)n(-c3cccc(I)c3)c2C)C1=O | 96
O=C(NCCc1ccccc1)c1cc(-c2ccccc2)on1 | 99
CNC(=O)O/N=C/c1nn(C(=O)C(C)(C)C)cc1Br | 104
CCc1nc(NN)c2c(n1)-c1ccccc1CC21CCCCC1 | 95
N#Cc1c(NC(=S)NC(=O)c2ccco2)sc2c1CCCC2 | 97
Nc1nc(-c2cccs2)c(C(=O)C(F)(F)F)s1 | 98
O=C(O)c1nccnc1C(=O)N1CCN(c2nc3ccc(Cl)cc3s2)CC1 | 97
O=C(NCC1CCCO1)c1ccc(NS(=O)(=O)c2ccccc2)cc1 (stereo not drawn) | 98
COC(=O)c1c(C)oc(C)c1S(=O)(=O)NCc1ccco1 | 98
CCn1cc(C(=O)O)c(=O)c2cc(F)c(N3CCN(C)CC3)cc21 | 94&95
O=C(/C=C/c1ccccc1)N1CCOCC1 | 89
Cc1cc(OCC(=O)Nc2cccnc2)c(C)cc1Br | 94
O=C(COc1ccccc1)NCCn1ccc2ccccc21 | 103
CCn1c(SC(C)C)nnc1-c1c[nH]c2ccccc12 | 100
COc1ccccc1/C=C/C(=O)NC1CCCC1 | 90
O=C(O)c1cccc2cccc(C(=O)O)c12 | 95
CN(C)C(=S)c1ccc(N(C)C)cc1 | 92
COc1cc(Br)cc2c1OC1(C)CC2NC(=O)N1 (stereo not drawn) | 96
Cc1ccc(NC(=O)/C(C#N)=C\Nc2cccc(O)c2)cc1 | 90
COC(=O)c1ccccc1NC(=O)c1ccc(NC(=O)c2ccco2)cc1 | 94
COc1cc(NC(=O)c2ccc(Br)o2)c(C(=O)O)cc1OC | 96
Cc1ccc(NC(=O)c2ccc(Br)o2)cc1C | 97
COc1cc(C2N(C(C)=O)N=C(NC(C)=O)N2C(C)=O)cc(OC)c1OC (stereo not drawn) | 83

Molecules shown so far with an aryl thioether with sulfur outside any ring (2):
SMILES | RVFV N-RNA FP
COc1ccc(CCNC(=O)CSc2nc(N3CCOCC3)nc(N3CCOCC3)n2)cc1OC | 99
CCn1c(SC(C)C)nnc1-c1c[nH]c2ccccc12 | 100

(further entries)
SMILES | RVFV N-RNA FP
O=C(c1cn(-c2ccccc2)nc1-c1cccc(Cl)c1)N1CCOCC1 | 110
Cc1ccc(C(CC(=O)O)c2ccccc2)c(O)c1 (stereo not drawn) | 101
Nn1c(SCc2ccccc2Cl)nnc(CCC(=O)O)c1=O | 100
CC1Oc2ccccc2OC1C(=O)Nc1ccccc1 (stereo not drawn) | 102
CC1CC(=O)Nc2ccccc2N1C(=O)c1ccc(F)cc1F (stereo not drawn) | 95
COC(=O)c1sc(S(C)=O)c(-c2ccon2)c1C (stereo not drawn) | 87
CC1(C)C(=O)OC(/C=C\c2ccccc2)C(C)(C)C1=O (stereo not drawn) | 97
COc1ccccc1N1CCN(CCN2C(=O)CC3(CCCC3)CC2=O)CC1 | 92
N#CCNC(=O)C(Sc1ccccc1)c1ccccc1 (stereo not drawn) | 106
COC(=O)Cc1c(C)c2ccc(OCC(=O)N(C)C)c(C)c2oc1=O | 99
CCOc1ccc2ccccc2c1CNc1nnnn1CC | 93
C=CCOn1c(=O)c(-c2ccc(OC)c(OC)c2)[n+]([O-])c2ccccc21 | 101
Fc1ccccc1OCCCCSc1ncccn1 | 92
CNS(=O)(=O)c1cc(O)c2c(S(=O)(=O)NC)cccc2c1 | 103
CC1CCCCN1S(=O)(=O)c1ccc(C(=O)Nc2nnc(-c3cccs3)o2)cc1 (stereo not drawn) | 87
CN(C)c1ccc(/C=N/NC(=O)C2=CCN(Cc3ccccc3)CC2)cc1 | 94
Cc1ccc(Cl)c(Nc2ccccc2C(=O)O)c1Cl | 87&105
N#Cc1c(Nc2ccccc2Cl)s[nH]c1=O | 94
O=C(CCCc1ccccc1)N/N=C/c1ccc(O)cc1O | 94
CC(C)(C)NC(=O)Cn1cnc2c(cnn2-c2ccccc2)c1=O | 92
CC(=O)Oc1cc2c(C(=O)NCCCN3CCOCC3)c(C)oc2c2ccccc12 | 94
O=C(CSc1ccccc1C(=O)O)c1ccccc1 | 92
O=C(NN=C1CCCC1)c1ccccc1O | 89
CCCCCCN1C(=O)NC(c2ccccc2)C1=O (stereo not drawn) | 96
CNC(=O)Cn1cc(S(=O)(=O)Cc2ccccc2)c2ccccc21 | 92
Cc1cc(C)c(-c2ccn(C(=O)c3cc(-c4ccccc4)oc3C)n2)[nH]1 | 95
CC(O)(C(=O)NN=C1CCCC1)c1ccccc1 (stereo not drawn) | 99
Cc1nc2nc(N)[nH]c(=O)c2nc1C | 91
CC(C)[N+]1(C)[C@@H]2CC[C@H]1CC(OC(=O)C(CO)c1ccccc1)C2 (stereo partly drawn) | 100
Clc1ccc(-c2csc(-c3cccc(-n4cccc4)c3)n2)cc1 | 92

Molecules shown so far that contain fluorine (5):
SMILES | RVFV N-RNA FP
O=C1C=C(Cc2ccc(F)cc2)C(=O)c2ccccc21 | 101
Nc1nc(-c2cccs2)c(C(=O)C(F)(F)F)s1 | 98
CCn1cc(C(=O)O)c(=O)c2cc(F)c(N3CCN(C)CC3)cc21 | 94&95
CC1CC(=O)Nc2ccccc2N1C(=O)c1ccc(F)cc1F (stereo not drawn) | 95
Fc1ccccc1OCCCCSc1ncccn1 | 92

Molecules listed so far with a tert-butyl group, in the order listed:
SMILES | RVFV N-RNA FP
CC(C)(C)c1cc(C(=O)NN)n(Cc2ccccc2)n1 | 107
CNC(=O)O/N=C/c1nn(C(=O)C(C)(C)C)cc1Br | 104
CC(C)(C)NC(=O)Cn1cnc2c(cnn2-c2ccccc2)c1=O | 92

The list continues:
SMILES | RVFV N-RNA FP
Cc1nc2n(c(=O)c1CCN1CCC(c3noc4cc(F)ccc34)CC1)CCCC2 | 102&93
COc1ccc2nc(NC(=O)C3CCC3)sc2c1 | 99
COC(=O)CCc1ccc(OCC(O)CNC(C)C)cc1 (stereo not drawn) | 90&97
Cc1ccc(-c2nnc(NC(=O)c3ccc(S(=O)(=O)N4CCCC4)cc3)o2)c(C)c1 | 97
CCCN1CCC(NC(=O)Nc2ccccc2C(=O)OC)CC1 | 91
O=c1[nH]c(=O)n(-c2ccc(Cl)cc2)c(O)c1C=Nc1ccc(N2CCOCC2)cc1 | 89
CN1N=C(C(F)(F)F)CC1=O | 93
C=CCc1c(C)nc(SCC(C)C)[nH]c1=O | 84
CCOC(=O)C1CCCN(S(=O)(=O)c2ccc(C)cc2)C1 (stereo not drawn) | 96
CCCN(CCO)CC1CCCCC1 | 90
CCOC(=O)C(C#N)C1(O)C(=O)c2ccccc2C1=O (stereo not drawn) | 83
CCn1c(O)c(N=NS(=O)(=O)c2ccc(C)cc2)c2cc(Cl)ccc21 | 89
CCCCN1C=C(C(=O)OC)C(c2cccc(OC)c2OC)C(C(=O)OC)=C1 | 102
O=C(O)CCCn1c(=O)c2cc3c(=O)n(CCCC(=O)O)c(=O)c3cc2c1=O | 99
C[C@@H](NCCc1ccc(O)cc1)[C@@H](O)c1ccc(O)cc1 | 108
N/C(CN1CCSCC1)=N\OC(=O)c1cccs1 | 98
COC(=O)c1c(NS(=O)(=O)c2cccs2)sc2c1CCCC2 | 94
O=C(Cc1cccc2ccccc12)Nc1nnc(-c2ccncc2)o1 | 94
NNc1nc2c(c(=O)[nH]1)C1(CCCCC1)Cc1ccccc1-2 | 98
Cc1[nH]nc2c1C(c1ccccc1)C1=C(CC(C)(C)CC1=O)N2 (stereo not drawn) | 101
O=S(=O)(NCc1ccco1)c1ccc2c(c1)Cc1ccccc1-2 | 92
CC(C)(CSc1ncccn1)NS(=O)(=O)c1ccccc1 | 95
N=C(N)c1ccccc1 | 95
O=C(NC(=S)NC12CC3CC(CC(C3)C1)C2)c1ccco1 | 98
CC(=O)NC(=O)CCSc1ccccc1C(=O)NC(C)=O | 96
NS(=O)(=O)c1ccc(CCNC2=CC(=O)CC(c3ccco3)C2)cc1 (stereo not drawn) | 92
COC(=O)c1sccc1NC(=O)CC(=O)C(F)(F)F | 94
O=C1NC2C3CC4CC(C3)CC2(C4)O1 (stereo not drawn) | 82
CC(C)(C)C(=O)Nc1c(Br)c(C2CC2)nn1-c1ccccc1 | 93
COC(=O)C(C)Sc1ccc2nnc(-c3cccnc3)n2n1 (stereo not drawn) | 105
CCOC(=O)c1s/c(=N/N=C(C)C)n(C)c1C | 94
Cc1ccc2c(n1)CC(C)(C)C/C2=N/O | 98
O=S(=O)(Cc1ccc(Cl)cc1)c1nc2ccccc2[nH]1 | 95
COc1ccc(OCC(O)CNS(=O)(=O)c2ccc(C)cc2)cc1 (stereo not drawn) | 95
CCOC(=O)COc1nc(-c2ccco2)cc(-c2ccco2)c1C#N | 96
CCCn1c(=O)c(Br)cn(-c2ccccc2C)c1=O | 94
Cc1c(Sc2ccc(Cl)cc2)c(=O)[nH]c2cc3c(cc12)OCO3 | 91
Cc1cc(NS(=O)(=O)c2ccc(NC(=O)CSc3nnc(-c4ccccn4)n3Cc3ccco3)cc2)nc(C)n1 | 97
O=C(O)CN1C(=O)/C(=C2\SC(=Nc3ccc(Br)cc3)NC2=O)c2ccccc21 | 93
COc1cccc(Cn2cc(NC(=O)Nc3ccc(F)cc3F)cn2)c1 | 97

Reprinted from the part before: 6 compounds, followed by the next part.
SMILES | RVFV N-RNA FP
CCOC(=O)COc1nc(-c2ccco2)cc(-c2ccco2)c1C#N | 96
CCCn1c(=O)c(Br)cn(-c2ccccc2C)c1=O | 94
Cc1c(Sc2ccc(Cl)cc2)c(=O)[nH]c2cc3c(cc12)OCO3 | 91
Cc1cc(NS(=O)(=O)c2ccc(NC(=O)CSc3nnc(-c4ccccn4)n3Cc3ccco3)cc2)nc(C)n1 | 97
O=C(O)CN1C(=O)/C(=C2\SC(=Nc3ccc(Br)cc3)NC2=O)c2ccccc21 | 93
COc1cccc(Cn2cc(NC(=O)Nc3ccc(F)cc3F)cn2)c1 | 97
CC(=O)Nc1cccc2c1Cc1ccccc1-2 | 93
COC(=O)CN(c1ccc2c(c1)OCCO2)S(C)(=O)=O | 100
O=S(=O)(Nc1cc(C(F)(F)F)ccc1N1CCc2ccccc2C1)c1cccc2nonc12 | 95
Cc1occc1C(=O)N1CCN(c2ccc(Cl)c(Cl)c2)CC1 | 88
CC1CCCN(S(=O)(=O)c2ccc(/C(O)=C(\C#N)c3nc4ccccc4n3C)cc2)C1 (stereo not drawn) | 96
CC[C@H]1OC(=O)[C@H](C)C(O[C@H]2C[C@@](C)(OC)[C@@H](O)[C@H](C)O2)[C@H](C)[C@@H](OC2O[C@H](C)C[C@H](N(C)C)[C@H]2O)[C@](C)(O)C[C@@H](C)CN(C)[C@H](C)[C@@H](O)[C@]1(C)O (stereo partly drawn) | 104
Clc1cccc(N2CCN(C3=Cc4ccccc4C3)CC2)c1 | 101
O=C(Nc1nc2c(Cl)cccc2s1)c1ccc2ncsc2c1 | 92
CSC1=NCCN1C(=O)C(C)(C)Oc1ccc(Cl)cc1 | 96
O=C(CN1CCOCC1)Nc1scc2c1c(=O)oc1ccccc12 | 87
CCOC(=O)c1[nH]c(C)c(C(=O)N2CCc3ccccc3C2)c1C | 97
CCC(=O)Nc1nnc(-c2ccco2)o1 | 96
CCCC(=O)Oc1ccc2[nH]c(C(=O)c3cc4ccccc4[nH]3)cc2c1 | 82
CC(C)(C)c1cc(-c2ccccc2)c(C#N)c(N)n1 | 101
CCOc1ccccc1N1CCN(C(=O)CC(C)(C)C)CC1 | 98
C=C(C)C1CC=C(CN2CC(C)OC(C)C2)CC1 (stereo not drawn) | 95
O=C(Nc1ccccc1)c1cnc2n(c1=O)CCS2 | 97
COC(=O)COc1ccc(S(=O)(=O)Nc2ccc(F)c(Cl)c2)cc1 | 96
CC(C)C(=O)Nc1ccc2oc(-c3cccc4c(Br)cccc34)nc2c1 | 90
c1ccc2[nH]c(C3CCN(CCC4OCCO4)CC3)nc2c1 | 93
C1CCc2nnnn2CC1 | 99
Cn1ncc(C#N)c1/N=C/N1CCCCC1 | 96
CN(C)CC[C@@H](c1ccc(Cl)cc1)c1ccccn1 | 98&92
COc1ccc(Cl)cc1S(=O)(=O)NC(C)C | 95
COc1ccc(-c2noc(CN)n2)cc1OC | 105
O=c1nc(-c2ccc(Cl)cc2)nc(-c2ccc(Cl)cc2)[nH]1 | 92
Cn1c(O)c(N=Nc2nc3c(c(=O)[nH]c(=O)n3C)n2CCCOc2ccccc2)c(=O)n(C)c1=O | 95
O=C(Nc1ccccc1)c1cccc(S(=O)(=O)N2CCCCC2)c1 | 91
Cn1c(=O)[nH]c(=O)c2c1nc1oc(C(C)(C)C)cn12 | 92
Cc1cccc(C)c1NC(=O)C(C)N (stereo not drawn) | 94&94
Cc1nnc(C)n1N1C(=O)c2cccc3cccc(c23)C1=O | 88
CCCCn1ncc(O)c(Cl)c1=O | 92
Cc1ccc(/C(O)=C2/C(=O)C(=O)N(CC3CCCO3)C23C(=O)N(C)c2ccccc23)cc1 (stereo not drawn) | 99

Assay outcomes deposited in PubChem by ICCB-Longwood Screening Facility, Harvard Medical School.
